Beta cell apopt: inhibitors of cytokine-induced beta cell apoptosis, primary screen, luminescence; INS-1E cytokine-induced death, ATP luminescence, 48 h; percent of positive-control rescue, neutral wells zero; protection from apoptosis, % (concentration not given with the values); 300,000 tested, 0.8% active; AID 435005, 2010;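 active = all replicates at 75% or more, or half of them and the mean; inconclusive = half reach 75% but not the mean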;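 also: 0% = cytokine-treated negative control wells and 100% = positive control rescue; higher means more ATP so stronger rescue from cytokine killing; wells of about 40 µL received 100 nL stock; the first replicate is given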
B2AR ag: beta2AR agonists driving receptor internalization, primary screen, cell-based, FAP fluorogen, flow cytometry. Beta-2 adrenergic receptor (Homo sapiens), P07550. Am2.2-beta2AR cells; reference of the scale not given here. response, % (concentration not given with the values). 340,000 tested, 0.43% active. AID 504454, 2011;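 active = response above a set limit, near 3 SD of response in nonfluorescent compounds, cut at about 42% in these data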;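 also: stock transfer was 100 nL into about 11 µL; a reference agonist was the positive control; negative values mostly stem from fluorescent compounds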
T cruzi repl: inhibitors of intracellular T. cruzi growth, primary screen, luminescence, NIH3T3 host cells; T. cruzi beta-gal in NIH3T3, 90 h; inhibition, % (test concentration not listed); 300,000 tested, 1.4% active; AID 1885, 2009;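 active = mean inhibition across valid replicates above about 55%, limit read from the data; inconclusive = mean below that limit but half or more replicates reach it; inactive = mean below it, under half of replicates reach it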;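 also: signal also drops with host cell toxicity which is not excluded here; 0% = plate median of DMSO wells and 100% = zero luminescence signal; higher percent means less beta-gal luminescence so fewer parasites; stock transfer was 50 nL into about 50 µL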
UCH37 inh: inhibitors of human UCH37 deubiquitinase, primary screen, biochemical, Ub-AMC cleavage, fluorescence. purified proteasome/UCH37. inhibition, % (concentration not given with the values). 330,000 tested, 0.33% active;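 active = mean of two replicates above 20%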;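 also: 0% = compound-free wells with enzyme and 100% = wells lacking proteasome; stock transfer was 100 nL into about 20 µL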
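system = Proteasome-associated human UCH37 deubiquitinase | amount = 0.15 nM proteasome as dispensed | medium = pH 7.4 Tris-HCl (50 mM) with ovalbumin, ATP-MgCl2, DTT | incubation = 30 min preincubation with enzyme, 25 min cleavage at room temperature | detection = AMC fluorescence 355/460 nm | read-out basis = percent inhibition | controls = no-proteasome and no-compound wells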
Calb FLC: C. albicans growth inhibition with fluconazole, primary screen, CaCi-2 strain, Alamar Blue fluorescence; C. albicans CaCi-2 (fluconazole-resistant clinical isolate) + fluconazole, 48 h; growth inhibition, % (concentration not given with the values); 300,000 tested, 0.57% active;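 active = most replicates above 75%; inconclusive = exactly half above 75%; inactive = most below 75%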;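 also: all wells also contain fluconazole at 8 µg/ml as a sub-toxic cotreatment; 0% = median of DMSO wells and 100% = median of geldanamycin control wells; wells of about 8 µL received 7.5 nL stock; the first replicate is given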
Bfl-1 A1 inh: caspase 3/7 activation in MEF A1-2A-BIM cells, primary screen, A1 inhibitor project, cell-based, luminescence, HTS; Caspase-Glo 3/7 luminescence, 3 h; percent of clofoctol response, vehicle zero; caspase activation, % (no concentration beside the values); 330,000 tested, 0.066% active;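 active = over half of replicate activation scores above 10%, or exactly half above 10 with the replicate mean above 10; inconclusive = replicate mean below 10 yet half the replicates above 10; inactive = over half of replicates below 10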;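 also: wells of about 30 µL received 50 nL stock; many hits fall short of the cut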
RanGTP-Imp inh: inhibitors of RanGTP-importin-beta interaction, primary screen, biochemical, FRET, CFP-Ran, YFP-importin-beta, homogeneous; Ran GTPase (GTP-bound) - importin-beta complex; cell-free CFP-Ran/YFP-importin-beta FRET ratio; inhibition, % (concentration not given with the values); 300,000 tested, 1.1% active;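 active = most replicates above 15%; inconclusive = exactly half above 15%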;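 also: 0% = DMSO wells and 100% = Ran loaded with GDP instead of GTP; wells of about 40 µL received 100 nL stock; the first replicate is given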
LANA-H2A inh: blockers of LANA interaction with H2A/H2B – biochemical, FP readout, HTS, primary screen | inhibition, % (concentration not given with the values) | cell-free LANA-H2A/H2B peptide, fluorescence polarization | Protein LANA1 (Human herpesvirus 8 type P (isolate GK18)), Q9QR71 | 320,000 tested, 0.6% active; in the data active = inhibition mostly above about 10%, no sharp cut-off; inactive = mostly below about 6.7%;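 also: stock transfer was 7.5 nL into about 10 µL; 0% = median of vehicle wells and 100% = median of positive control wells; one replicate is shown; the record names a cut of 25% in any replicate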
Target sequence (Q9QR71 whole entry, looked up): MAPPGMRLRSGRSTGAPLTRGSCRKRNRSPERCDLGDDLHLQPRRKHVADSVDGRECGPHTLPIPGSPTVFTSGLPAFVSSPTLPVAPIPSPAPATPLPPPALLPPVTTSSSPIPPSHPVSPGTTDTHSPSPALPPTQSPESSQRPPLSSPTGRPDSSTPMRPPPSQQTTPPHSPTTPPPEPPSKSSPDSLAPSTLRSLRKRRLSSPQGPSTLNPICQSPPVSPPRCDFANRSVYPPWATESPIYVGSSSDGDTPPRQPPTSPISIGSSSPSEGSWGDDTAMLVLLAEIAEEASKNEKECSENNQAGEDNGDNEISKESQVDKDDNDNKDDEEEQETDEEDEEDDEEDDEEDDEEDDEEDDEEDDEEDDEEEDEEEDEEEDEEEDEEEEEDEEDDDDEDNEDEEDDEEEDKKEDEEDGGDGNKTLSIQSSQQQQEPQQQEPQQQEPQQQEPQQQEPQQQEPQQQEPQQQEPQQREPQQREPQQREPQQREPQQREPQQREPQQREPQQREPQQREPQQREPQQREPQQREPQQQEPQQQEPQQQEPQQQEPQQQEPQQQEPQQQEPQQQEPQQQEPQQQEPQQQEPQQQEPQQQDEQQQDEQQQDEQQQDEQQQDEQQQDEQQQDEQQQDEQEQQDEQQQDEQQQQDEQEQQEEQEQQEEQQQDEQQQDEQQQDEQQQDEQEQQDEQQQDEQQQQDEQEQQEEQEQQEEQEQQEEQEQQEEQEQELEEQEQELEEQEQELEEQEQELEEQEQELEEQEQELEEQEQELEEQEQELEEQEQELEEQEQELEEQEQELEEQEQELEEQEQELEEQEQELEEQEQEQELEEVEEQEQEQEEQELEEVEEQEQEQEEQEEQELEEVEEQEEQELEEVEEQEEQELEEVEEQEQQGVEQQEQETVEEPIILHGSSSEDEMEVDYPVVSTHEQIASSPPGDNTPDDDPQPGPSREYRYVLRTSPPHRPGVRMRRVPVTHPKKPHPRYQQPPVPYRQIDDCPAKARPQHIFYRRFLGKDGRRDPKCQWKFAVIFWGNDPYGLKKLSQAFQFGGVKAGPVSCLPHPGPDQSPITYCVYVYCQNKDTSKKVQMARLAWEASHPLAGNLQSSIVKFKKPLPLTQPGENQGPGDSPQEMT
* = called active by the depositor; i = inactive; ? = inconclusive; . = not tested or not shown.

Molecule,Beta cell apopt,B2AR ag,T cruzi repl,UCH37 inh,Calb FLC,Bfl-1 A1 inh,RanGTP-Imp inh,LANA-H2A inh
O=C(Nc1nc2ccc(Cl)cc2s1)c1cccc(N2C(=O)CCC2=O)c1,9,-2,-12,-16,.,-0.2,2.1,2.8
Cc1c(NS(=O)(=O)c2cc(C(=O)N3CCCC(C)C3)ccc2Cl)c(=O)n(-c2ccccc2)n1C (configuration not stated),-10,5,.,1.3,.,-0.2,.,4.4
S=C(Nc1ccccc1)Nc1ccc2cn[nH]c2c1,-18,-4,-11,.,12,-0.8,6.5,0.5
CCCC(=NC(C)CC)C1=C(O)CC(c2ccccc2)CC1=O (configuration not stated),2,-2,14,7.6,-7,-0.4,6.9,5.3
CCCCNC(=O)c1c(CSc2ccc(Cl)cc2)noc1C(=O)NCc1ccccc1,9,4,23,0.9,-3,1.3,-2.9,1.4
CC(C)(C)c1ccc(O)c(N=Cc2cc3c(cc2[N+](=O)[O-])OCO3)c1,0,2,17,.,-7,0.5,-1.3,2.3
O=C(COc1ccc(Br)cc1CO)Nc1ccccc1F,-4,1,7,2.0,4,-0.5,?,3.6
COc1cccc(-c2nc(CS(=O)(=O)CC(=O)NCCCN3C(C)CCCC3C)c(C)o2)c1 (configuration not stated),9,6,-5,1.2,-9,-0.1,2.2,-1.6
O=C(COc1ccccc1[N+](=O)[O-])Nc1ccc2c(c1)OCO2,3,4,6,2.9,5,-0.7,1.6,8.3
Cc1ccc(OCC(=O)NC(=S)Nc2cccc(NC(=O)c3ccccc3Cl)c2)cc1,-2,-19,-3,5.7,23,0.0,0.9,-5.6
COc1ccccc1NC(=O)CSc1nnc(CNC(=O)c2ccco2)o1,-7,2,-10,1.1,5,0.0,-2.2,15
COc1cc(/C=C(\C#N)C(=O)NCC2CCCO2)ccc1OCCC(C)C (configuration not stated),2,3,-1,0.7,3,-0.6,2.6,-6.7
Cc1[nH]c2ccc(F)cc2c1CCN(Cc1cccnc1)C(=S)Nc1cccc(F)c1,0,-3,65*,2.3,25,-0.7,3.6,-2.3
COc1ccccc1-c1cc(C(=O)N2CCCCC2)no1,-3,1,8,3.6,-2,-1.9,-3.7,0.7
O=C(CCN1CCOCC1)Nc1cccc(Br)c1,-3,-6,-11,5.5,3,-0.2,?,0.4
CCOC(=O)c1cc(-c2cccnc2)nn1-c1ccccn1,-1,-3,-4,-2.8,-7,-0.4,-2.9,-3.3
CC1CCc2sc(C(=O)NCc3ccc(F)cc3)cc2C1 (configuration not stated),2,-8,11,3.9,10,1.3,3.6,1.0
CCCNc1nc2ccccc2c(=O)[nH]1,-1,1,-27,-39,4,2.3,-3.0,-8.3
O=C(NN=C1CCCC1)c1cc(Cl)cc(Cl)c1O,.,-3,-8,i,63,0.4,-2.6,-0.2
O=C(NCCCn1ccnc1)/C(=C\c1cccnc1)NC(=O)c1ccco1,-1,3,-17,-0.6,-6,1.1,3.3,-5.1
CCOc1ccc(/C=N/NC(=O)c2[nH]c3ccc(C)cc3c2C)cc1,-3,5,2,.,8,-1.3,4.1,1.7
O=C(N=C1SC2CS(=O)(=O)CC2N1c1ccc(Br)cc1)C1CCCO1 (configuration not stated),1,0,-10,2.9,-7,1.6,2.9,1.4
CCOC(=O)c1sc(NC(=O)C2CC2)cc1C,.,-26,0,2.4,26,-1.5,?,-1.1
Cc1cccc(C)c1NC(=O)c1cc(-c2ccccn2)nc2ccccc12,6,5,17,-0.8,9,0.8,1.6,-11
CCN1CCN(C(CNC(=O)c2ccc3c(c2)OCO3)c2cccnc2)CC1 (configuration not stated),-4,-7,4,7.1,3,1.0,4.0,2.3
Cc1ccc(C)c(-n2c(-c3ccco3)n[nH]c2=S)c1,.,-4,.,-3.5,18,2.1,15*,-0.3
Nc1ccc2nc3c(=O)n(CCc4ccccc4)c(=O)[nH]c3nc2c1,11,-7,-2,8.2,0,0.2,-371,6.3
COc1cc(/C=N/NC(=O)Cn2nnc3ccccc32)ccc1O,-3,19,-3,.,-9,0.9,0.8,3.7
CCc1ccc(-n2c(SCC(=O)Nc3ccc(C(=O)O)cc3)nnc2-c2ccncc2)cc1,-2,.,3,2.7,4,0.9,0.3,1.0
Cc1cccc(NC(=S)NNc2cccc(Cl)c2)c1,0,1,?,1.7,-7,0.3,2.8,5.7
COc1cccc(C(=O)Nc2ccc(F)cc2F)c1,1,1,-7,4.0,5,-7.8,0.5,-0.2
Cc1ccc(C2c3c(C)nn(-c4ccc([N+](=O)[O-])cc4)c3N=C3C(=O)Nc4ccccc4N32)cc1 (configuration not stated),23,.,65*,4.6,63,0.2,1.2,-1.8
Cc1ccc(CNC(=O)c2ccccc2NC(=O)C2=CSCCO2)cc1,2,4,-1,0.7,20,1.9,1.9,4.7
CCCN1C(=O)/C(=C/c2ccc(N3CCCC3)c(C)c2)NC1=S,6,i,7,4.8,1,0.1,?,-22
CCCN(CCC)S(=O)(=O)c1ccc(C(=O)Nc2nc(-c3ccccc3)c(C(=O)OCC)s2)cc1,-4,-2,-18,-27,10,0.2,4.0,-1.1
COC(=O)c1ccc(NC(=O)C2CCN(C(=O)c3cc(OC)c(OC)c(OC)c3)CC2)cc1,1,0,-3,-2.0,.,-0.3,-6.0,-2.0
CCOC(=O)N1CCN(C(=O)c2ccccc2NC(C)=O)CC1,-5,1,-5,1.7,-19,0.2,.,-4.3
NC(=S)N/N=C/c1coc2ccc(F)cc2c1=O,-2,14,-9,.,0,0.7,-3.2,-2.6
O=C(O)c1ccc(N/N=C/C=C/c2ccc([N+](=O)[O-])o2)cc1,5,-40,7,.,-9,-0.9,-11,2.4
COc1ccccc1CC(=O)Nc1ccccc1C(=O)O,-2,12,2,4.0,-19,0.2,1.6,-0.2
CS(=O)(=O)c1cccc(-c2nnc(NC(=O)CCS(=O)(=O)c3ccccc3)o2)c1,-7,2,-5,-2.5,-3,0.6,?,-4.8
Brc1ccc(CNCc2cccs2)cc1,-2,-2,-9,0.7,-4,0.5,0.1,-2.5
CCOC1(c2ccccc2)OC(=O)c2ccccc21 (configuration not stated),-9,27,0,3.0,-3,0.3,?,-4.0
CN1CCN(C(=O)C2(NC(=O)NCc3ccccc3)CCCCC2)CC1,-5,14,-7,0.1,0,0.2,-1.8,-1.9
Cc1ccc(C(=O)Nc2cccc(S(=O)(=O)N3CCCC3)c2)o1,3,-4,.,0.9,.,-1.0,.,-4.3
Cc1ccc(-n2ncc3c(=O)n(CC(=O)OCc4ccccc4)cnc32)cc1,-6,3,-13,1.4,17,0.5,-0.1,-3.2
O=C(Nc1cc(Cl)cc(Cl)c1)c1coc(=O)c(Br)c1,-15,-6,-3,.,18,0.5,3.9,-1.2
O=C(COC(=O)CNC(=O)c1ccccc1F)NC12CC3CC(CC(C3)C1)C2,-6,-5,.,0.0,.,0.2,.,i
O=C(Nc1ccc(C(=O)N2CCCCC2)cc1)c1ccc([N+](=O)[O-])cc1,0,-6,1,-1.8,1,0.7,0.0,1.5
Cc1nn(-c2ccccc2)c(N2CCCC2)c1/C=N/NC(=O)c1cc2ccccc2cc1O,4,8,-5,.,-3,0.2,-3.3,3.1

The results go on.
Molecule,Beta cell apopt,B2AR ag,T cruzi repl,UCH37 inh,Calb FLC,Bfl-1 A1 inh,RanGTP-Imp inh,LANA-H2A inh
CCCCS/C(=C(/C#N)C(N)=O)c1cc2c([nH]1)CCCC2,6,-11,54,9.3,-36,1.2,3.0,-2.2
CC(C)C[C@H](NC(=O)NCc1ccc(F)cc1)C(=O)O,-6,-14,-8,0.9,-3,?,9.6,3.0
CCOC(=O)C(C)n1cnc2scc(-c3ccc(C)cc3)c2c1=O (configuration not stated),-2,5,6,4.9,35,0.1,-0.8,-2.5
CN(CC(=O)Nc1ccccc1Br)C(=O)COc1cccc2c1OC(C)(C)C2,-2,-2,-3,-0.3,-5,-0.4,1.6,-1.4
CCOc1ncccc1C(=O)Nc1ccccc1C(=O)NCc1ccc2c(c1)OCO2,3,2,-8,-0.3,1,-0.1,0.1,3.5
O=C(Nc1c(C(=O)O)oc2ccc(Br)cc12)c1ccccc1,0,-10,-1,1.0,-6,0.4,1.8,-4.5
CCc1ccc(NC(=O)Nc2cnccn2)cc1,-3,-13,-5,3.1,41,-0.3,-3.1,0.7
Cc1cccc(C)c1NC(=O)COC(=O)CCC(=O)c1cccs1,-7,-1,5,-3.2,-4,-0.1,4.2,-1.5
COc1ccc(OC)c(S(=O)(=O)NCc2ccccc2)c1,-1,5,-2,1.2,-6,0.7,-1.9,6.5
CC(C)CCn1c(SCc2ccc(Cl)cc2)nc2c1c(=O)[nH]c(=O)n2C,.,-10,50,4.2,10,1.1,3.3,1.4
O=C1c2cc(F)ccc2-n2c1nc1ccccc1c2=O,62,10,52,.,-33,-1.3,-1.0,-0.8
COn1c(=O)c(-c2cccs2)[n+]([O-])c2ccccc21,-8,8,5,-7.5,31,1.5,1.4,-0.4
CCSC1(SCC)N=C(N)C2(C#N)C(c3ccccc3)NC3=C(CCC3)C12C#N (configuration not stated),-1,-1,-27,-0.9,5,0.7,9.1,-2.0
CCN(CC(=O)Nc1c(F)cccc1F)C(=O)CSCC(=O)Nc1cc(C)on1,-7,-3,-2,4.9,3,0.0,-1.5,3.3
CCC(C(=O)O)n1c2ccccc2c2cn[nH]c(=O)c21 (configuration not stated),-4,-1,-5,-4.4,2,2.2,-1.1,-0.7
NCCC(=O)N1c2ccccc2Sc2ccc(Cl)cc21,-4,4,-9,2.7,-10,1.3,7.3,-0.8
COc1ccc(C(=O)OCC(=O)NCc2ccccc2)c(OC)c1OC,-2,-2,-19,-1.4,-2,0.3,?,-4.1
COC(=O)CSc1nc2sc3c(c2c(=O)n1-c1ccccc1)CCN(C)C3,2,-2,45,-81,6,1.0,4.6,0.9
OCCOCCNc1ncnc2c1c(-c1ccccc1)cn2-c1ccccc1,6,0,10,1.3,4,-1.1,-0.8,3.1
Cc1ccc2[nH]c(=O)c3cc(C(=O)NCCN4CCN(C)CC4)sc3c2c1,3,-13,-11,-303,1,1.3,6.2,-2.5
Cc1c(C(=O)N(Cc2ccco2)Cc2cccs2)oc2ccccc12,-1,0,.,0.6,.,0.3,.,-0.2
Cc1[nH]n(-c2ncc(-c3ccccc3)s2)c(=O)c1C(c1ccc(Cl)cc1)C(C#N)C#N (configuration not stated),3,7,-21,1.0,-1,-0.7,?,1.1

Screens from PubChem.
